Source: PubChem BioAssay
Mtb betalactam: beta-lactam sensitization of Mtb H37Rv; inhibition, % at 25 µM; actives 0.27% (n = 330,000); M. tuberculosis H37Rv growth with meropenem, percent inhibition; hits of this screen are not shown here;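 active means about 74% or more and at least 40 points above the plate without the antibiotic, then above 30% in a dose series; inconclusive means first-round hits that could not be retested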;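 further: growth measured after seven days incubation then overnight dye step; 0% = bacteria only wells and 100% = bacteria with antibiotic; twin plates without the antibiotic show which effects depend on it; some results filed as inactive read as strong as hits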
YopH PTP inh: YopH (Yersinia) phosphatase inhibition; fluorescence Ex485/Em525; inhibition, %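 (about 10 µM by stock and volumes)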; actives 0.16% (n = 140,000); AID 898;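 active means inhibition of 50% or more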;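 further: controls were vehicle for no effect and minimum signal wells for full effect; inactives centre near -20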
Mtb H37Rv: M. tuberculosis H37Rv growth inhibitors, H37Rv strain (AID 1626) | M. tuberculosis H37Rv growth inhibition; higher % means a stronger effect | inhibition, % at 10 µM; hits with a dose series show IC50 in µM | actives 0.95% (n = 220,000);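 active means confirmed in a dose series; inconclusive means inhibition above 80% but not taken into the dose series; inactive means below 80% or under 30% at every dose of the series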;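 further: bacteria incubated seven days before Alamar blue readout; 0% = bacteria only wells and 100% = bacteria with antibiotic wells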
RecA splice inh: blocks M. tuberculosis RecA intein splicing; P9WHJ3; cell-free RecA intein splicing, fluorescence; inhibition, %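 (about 9 µM by stock and volumes)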; actives 0.75% (n = 290,000); AID 2221; in the data active means inhibition above about 30%; inconclusive means no clear call, values can overlap the other calls;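 further: 0% = vehicle wells and 100% = reference inhibitor control wells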
Target sequence (P9WHJ3 whole entry, looked up, canonical isoform): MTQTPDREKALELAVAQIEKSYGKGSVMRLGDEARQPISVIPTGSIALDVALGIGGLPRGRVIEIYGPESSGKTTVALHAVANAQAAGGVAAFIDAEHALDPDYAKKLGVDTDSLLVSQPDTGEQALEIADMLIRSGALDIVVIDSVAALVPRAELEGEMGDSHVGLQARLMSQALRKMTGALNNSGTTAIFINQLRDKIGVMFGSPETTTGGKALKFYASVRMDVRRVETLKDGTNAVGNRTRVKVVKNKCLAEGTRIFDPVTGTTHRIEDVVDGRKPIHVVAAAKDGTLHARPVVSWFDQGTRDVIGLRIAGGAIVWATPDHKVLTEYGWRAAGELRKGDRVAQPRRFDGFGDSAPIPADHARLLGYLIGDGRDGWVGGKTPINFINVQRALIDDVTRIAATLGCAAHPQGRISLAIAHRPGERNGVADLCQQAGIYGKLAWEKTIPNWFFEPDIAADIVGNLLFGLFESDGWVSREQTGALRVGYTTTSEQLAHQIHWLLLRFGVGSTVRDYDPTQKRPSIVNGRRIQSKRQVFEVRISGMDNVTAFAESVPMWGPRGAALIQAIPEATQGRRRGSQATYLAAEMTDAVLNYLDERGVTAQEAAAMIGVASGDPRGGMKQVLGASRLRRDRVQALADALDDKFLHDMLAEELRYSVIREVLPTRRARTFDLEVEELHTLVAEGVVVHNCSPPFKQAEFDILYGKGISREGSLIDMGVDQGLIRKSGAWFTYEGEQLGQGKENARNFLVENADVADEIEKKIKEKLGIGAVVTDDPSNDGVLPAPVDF
Arbovirus inh: blocks arbovirus infection. arbovirus infection cell-based antiviral screen. inhibition, % at 10 µM. actives 0.37% (n = 200,000). AID 1251;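 active means inhibition from about 30%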;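 further: bluetongue infection of BSR cells; cell survival read as ATP light after 72 h; 0% = infected wells without compound and 100% = uninfected wells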
Arbovirus inh repeat: recorded beside Arbovirus inh, whose call it bears; inhibition, %; measured here: 10K subset replicate screen; many hits read low in the repeat;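 first of two repeat runs on a subset; 0% = infected and 100% = uninfected wells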
Numbers without * were called inactive; ? = inconclusive; / = no result given. Not all compounds are listed; the hit share may differ from the screen's.

SMILES	Mtb betalactam	YopH PTP inh	Mtb H37Rv	RecA splice inh	Arbovirus inh	others
CCOC(=O)c1cccc(N2C(=O)Nc3ccccc3N2O)c1	-13	-23	?	0.5	2
Cc1cc(/C=C2/C(=N)N3C(=NC2=O)SN=C3S(C)(=O)=O)c(C)n1-c1ccccc1	4	/	-1%	/	19
CC(=O)Nc1cc(-c2nn3c(C)nnc3s2)ccc1C	-10	-2	-4%	-0.8	-6	Arbovirus inh repeat=4
Cc1cc(C)c(S(=O)(=O)c2cccc(Br)c2C)c(=O)[nH]1	-5	/	/	0.1	/
O=C(NCc1ccc(F)cc1)C1CCCN(C(=O)Nc2ccccc2)C1 (configuration not stated)	0	-15	-1%	0.7	-1
CCOC(=O)C1(Cc2cccc(OC)c2)CCN(Cc2cnc(N)nc2)CC1	1	/	-5%	6.6	8
CC1C(C#N)=C(N)OC2=C1C(=O)CC(c1ccccc1)C2 (configuration not stated)	-6	/	1%	1.8	0
O=C(CN1CCOc2ccccc21)N1CCN(c2cccc(Cl)c2)CC1	-7	-45	5%	1.7	11	Arbovirus inh repeat=10
O=C(COc1ccccc1O)NNc1ccccc1	96	1	?	-3.4	-40
Cc1cccc(NC(=O)c2sc(NC(=O)COc3ccccc3)c(C#N)c2C)c1C	-1	-20	-6%	-1.3	-2
Cn1c(=O)n(C)c2cc(/C=N/NC(=O)c3ccncc3)ccc21	97	/	?	-2.3	-2
O=C(CN(CCc1ccccc1)S(=O)(=O)c1ccc(Cl)cc1)N/N=C/c1ccc2c(c1)OCO2	55	-23	8%	-1.7	-10
COC(=O)c1ccc(C(c2c(C)n(C)n(-c3ccccc3)c2=O)c2c(C)n(C)n(-c3ccccc3)c2=O)cc1	-2	/	/	-2.8	/
CCCCCCNC(=O)Cc1c(O)c2ccccc2[nH]c1=O	-11	-20	-4%	-3.4	-1
O=C(Nc1cc(Cl)ccc1F)C1=COCCO1	1	/	/	-6.4	/
CC(C)(CN1CCc2ccccc2C1)NS(=O)(=O)c1ccccc1	-11	/	4%	-3.4	/
Cc1nn(CC(=O)NCCc2ccccc2)c(=O)c2cc3occc3n12	2	/	/	1.9	/
CC(C(=O)Nc1ccc(Cl)cc1Cl)N1CC=C(c2ccccc2)CC1 (configuration not stated)	3	-26	14%	7.4	-12
CC1CCCN(CCCNC(=O)CN2C(=O)COc3ccc(S(=O)(=O)N4CCOCC4)cc32)C1 (configuration not stated)	2	/	/	2.0	/
O=C(NCCCN1CCCC1=O)[C@H](CSCc1ccccc1)N1Cc2ccccc2C1=O	0	/	-22%	0.8	/
COc1ccc2oc(=O)c(/C(C)=N/Nc3nc(-c4cc(C)ccc4C)cs3)cc2c1	4	-35	-7%	0.0	3
O=C(NCc1ccc(Cl)cc1)C1CCC(CNc2c(N3CCCC3)c(=O)c2=O)CC1 (configuration not stated)	1	/	-1%	6.2	/
CC(CNC(=O)C(C)(C)C)NC(=O)C(C)(C)C (configuration not stated)	-2	-25	2%	0.3	4
COc1ccc(/C=C(\NC(=O)c2cccs2)C(=O)NC(C)(C)C)cc1OC	-7	/	/	-0.5	/
Cc1ccc(OCc2nnc(SCC(=O)N3CCc4ccccc43)n2C)cc1	-6	-14	5%	1.3	/
O=C(c1ccc(Cl)cc1)n1cnc2ccccc21	2	/	/	49*	/
O=c1[nH]c(=O)n(-c2ccc(Cl)cc2)c(O)c1C=NCCN1CCCCC1	-4	/	6%	-1.6	0
CSCCC(NC(=O)COc1ccccc1)C(=O)Nc1ccc(C)cc1 (configuration not stated)	2	-17	3%	-3.2	-4
O=C(COC(=O)c1n[nH]c2ccccc12)Nc1ccccc1	6	/	-11%	-0.4	-1
O=C(O)c1ccccc1CSc1nc2ccccc2s1	2	/	/	-1.6	/
CCCSC(=S)NC1CCS(=O)(=O)C1 (configuration not stated)	1	-3	-12%	-0.5	-2
CCc1ccc(N2CC(C(=O)Nc3ccc4c(c3)OCCO4)CC2=O)cc1 (configuration not stated)	-1	/	/	-2.7	/
Nc1n[nH]c(C2CC2)c1N=Nc1ccc(Cl)c(Cl)c1	98	/	8%	6.1	/
Cc1ccc(OC(=O)c2oc3ccc(F)cc3c2C)c(C)c1	99	-20	?	4.2	-9
CCC1CCCCN1CC(=O)Nc1cc(C)nn1-c1nc(C)cc(C)n1 (configuration not stated)	67	-36	-2%	4.0	-11
COC(=O)[C@@]1(Cc2ccc(OC)cc2)[C@H]2c3cc(C(=O)N4CCCC4)n(Cc4c(CO)[nH]cc(C)c4=O)c3C[C@H]2CN1C(=O)c1ccccc1	-1	/	1%	2.9	/
CC(=O)Nc1ccc(N2CCN(c3ccc(C(F)(F)F)cn3)CC2)nc1	6	/	10%	/	/
CC(C)(C)c1csc(N(CCC#N)CCC#N)n1	-5	-27	1%	0.3	0
C/C(=C\c1ccccc1)C(=O)Nc1cc(C)on1	3	-18	20%	0.1	-2
COc1ccc(-c2cc(C(F)(F)F)n3ncc(C(=O)N4CCc5ccccc5C4)c3n2)cc1	6	/	5%	-9.4	-5
CCC(C)NC(=O)CC1Oc2ccc(Cl)cc2NC1=O (configuration not stated)	-1	-29	-3%	0.8	7
CCC(=O)NC(=S)Nc1cc(C(=O)O)ccc1OC	-12	/	3%	-0.3	-2
Cc1ccc(S(=O)(=O)N(C)C)cc1[N+](=O)[O-]	-3	/	-9%	0.2	/
COc1ccc(/C(C)=N/NC(=O)CNC(=O)/C=C\c2ccco2)cc1	-2	/	-4%	-0.3	-13
CCN1CCN(C(=O)N2CCOCC2)CC1	-6	/	-4%	-3.9	-2
O=C(NCc1cccnc1)c1ccc(S(=O)(=O)N2CCOCC2)cc1	1	-34	6%	-0.1	6
COc1ccc(OC)c(CCNC(=O)c2ccc3c(=O)[nH]c4c(C(=O)NC(C)C)sc(=S)n4c3c2)c1	97	/	/	-0.9	/
COc1ccc(Cl)cc1NC(=O)c1cc(-c2ccccc2)on1	1	/	/	-1.8	/
NC(=O)C(c1ccc(Sc2ccccc2)nn1)c1ccc(Cl)cc1Cl (configuration not stated)	-13	-26	-9%	2.8	-8
COC(=O)c1cccc(NC(=O)C2COc3ccccc3O2)c1 (configuration not stated)	-2	-28	8%	-0.6	-2
CC(=O)c1cccc(NC(=O)CNC(=O)Cc2ccccc2)c1	-9	/	/	-1.6	/
C#CCOCCOCCOCCNc1nc(N2CCOCC2)nc(N2CCN(C(=O)[C@H]([C@@H](C)CC)n3cc(CCCN=C(N)N)nn3)CC2)n1	-9	-8	-12%	-0.2	1
COc1ccc(-n2c(Cc3cccn3C)nnc2SCC(=O)Nc2cccc(NC(C)=O)c2)cc1	-5	-1	-4%	2.8	1
CC1CCCCC1Nc1ncnc2sccc12 (configuration not stated)	-10	/	/	-0.1	/
CCCOc1ccc(-c2nc(N3CCN(CC)CC3)c3ccccc3n2)cc1	?	/	/	4.8	/
CCCCCC(=O)NC(=S)Nc1ccc(Br)cc1C	8	-25	10%	-3.7	2
N#C/C(=C\c1cn(CCOc2ccccc2F)c2ccccc12)C(=O)NCc1cccs1	8	-27	0%	-2.5	-1
Cc1cc(Br)ccc1OCC(=O)N(Cc1nc(-c2ccccc2)no1)C(C)C	22	-11	3%	6.1	17
Cc1ccc(S(=O)(=O)Cn2nnnc2C(C(C)C)N2CCSCC2)cc1 (configuration not stated)	-3	-19	5%	-3.9	2
CC(C)(O)c1[nH]c2ccc(C(F)(F)F)cc2c1C(C)(C)O	-9	/	/	0.2	/

Pulled one by one from above, 3 records:
SMILES	Mtb betalactam	YopH PTP inh	Mtb H37Rv	RecA splice inh	Arbovirus inh	others
COC(=O)c1cccc(NC(=O)C2COc3ccccc3O2)c1 (configuration not stated)	-2	-28	8%	-0.6	-2
Cc1cc(Br)ccc1OCC(=O)N(Cc1nc(-c2ccccc2)no1)C(C)C	22	-11	3%	6.1	17
CC(=O)c1cccc(NC(=O)CNC(=O)Cc2ccccc2)c1	-9	/	/	-1.6	/

Additional compounds follow:
SMILES	Mtb betalactam	YopH PTP inh	Mtb H37Rv	RecA splice inh	Arbovirus inh	others
COc1ccccc1C(=O)NC(CCSC)C(=O)NNC(=O)c1csc(N2CCOCC2)n1 (configuration not stated)	-17	/	/	-0.2	/
CCCN(CCC)CC(=O)NCC1(c2ccccc2)CCOCC1	1	-16	-10%	1.9	-4
Cc1cc(C)c(C)c(S(=O)(=O)N2CCCN(C)CC2)c1C	5	/	/	0.3	/
Cc1ccc(C(=O)N/C(=C/c2ccco2)C(=O)N2CCOCC2)cc1	-2	/	/	2.1	/
O=C1CCC(=O)N1OCCOc1ccc(Cl)c2ccccc12	8	/	4%	6.7	-4
CC(Cc1ccccc1)N/C=C1\CC(=O)NC1=O (configuration not stated)	1	-91	2%	6.8	3
O=C(CN1CCCCC1)Nc1ccc(C(F)(F)F)cc1Cl	-1	/	-11%	-1.8	/
CCN1C(=O)/C(=C\c2ccco2)C(C(=O)OC)=C1C	-2	-1	-2%	-3.4	2
Cn1c(=O)c(C(=O)NCCO)c(O)c2ccccc21	-8	-37	4%	-3.3	11
CCOc1ccc(NC(=O)C(=O)N/N=C/c2cccnc2)cc1	-2	/	-9%	0.9	/
CCCn1c2ccccc2c2cnn(CC(=O)NCCCN3CCCCC3)c(=O)c21	-2	/	/	-2.5	/
COCCn1c(=O)[nH]c2cc(C(=O)Nc3cccc(C(C)=O)c3)ccc2c1=O	-5	/	/	0.6	/
COc1ccc(OC(C)C(=O)NCC2CCCO2)cc1 (configuration not stated)	-9	/	/	-1.9	/
NC(=NCCc1ccccc1)NS(=O)(=O)c1cccs1	-6	/	-4%	-0.8	-4
Cc1ccc2c(c1)C1CN(C)CCC1N2C(=O)/C(C#N)=C/c1ccc2c(c1)OCO2 (configuration not stated)	-3	/	-3%	3.5	-3
COc1ccc(C(=O)N(c2ccccc2)C2C=CS(=O)(=O)C2)cc1 (configuration not stated)	2	-48	5%	0.6	2
COc1ccc(S(=O)(=O)CCC(=O)N2CCN(c3ccc(C(C)=O)cc3)CC2)cc1	17	/	/	-0.1	/
Cc1cnc(NC(=O)C2(c3ccccc3)CC2)s1	0	/	7%	4.9	-1
CC1(C)OC(=O)N(CCc2ccccc2)C1(C)O (configuration not stated)	-4	-50	-4%	0.5	-2
CCCCCCSC1=C(C#N)C(=O)NC2(CCCCC2)S1	2	1	0%	5.3	-1
Cc1ccc(C(C(=O)NCc2ccco2)N(C(=O)Cc2cccs2)c2cccnc2)cc1 (configuration not stated)	-3	/	5%	4.4	0
CCOc1ccc(-c2ccc(SCC)nn2)cc1	-6	/	-2%	-2.3	-10
Cc1ccc(NC(=S)c2nc3ccccc3s2)cc1	38	-9	-3%	2.8	7
Cc1ccc(CCP(=O)(O)CN2CCOCC2)cn1	-2	-25	-8%	0.5	7	Arbovirus inh repeat=3
COC1CCCN(C(=O)c2cccc(OC3CCN(S(=O)(=O)N(C)C)CC3)c2)C1 (configuration not stated)	3	/	/	1.9	/
N=c1c2c3c(sc2ncn1CCN1CCOCC1)CCCC3	-4	-18	-4%	-1.0	13
COc1ccc(-c2nn(-c3ccccc3)cc2/C=C/C(=O)NCCCn2ccnc2)cc1OC	2	/	6%	/	-17
COC(=O)C1(C(F)(F)F)N=C2Sc3ccccc3N2C(N2CCOCC2)=N1 (configuration not stated)	4	-1	-3%	-0.7	-3	Arbovirus inh repeat=-3
COc1cccc(OC)c1C(=O)Nc1ccccc1Sc1ccccc1	4	/	/	16	/
Cc1onc(-c2c(F)cccc2Cl)c1C(=O)OCC(=O)c1c[nH]c2ccccc12	1	/	5%	10	/

In the list so far, these contain a COOH group:
SMILES	Mtb betalactam	YopH PTP inh	Mtb H37Rv	RecA splice inh	Arbovirus inh	others
O=C(O)c1ccccc1CSc1nc2ccccc2s1	2	/	/	-1.6	/
CCC(=O)NC(=S)Nc1cc(C(=O)O)ccc1OC	-12	/	3%	-0.3	-2

(listing goes on)
SMILES	Mtb betalactam	YopH PTP inh	Mtb H37Rv	RecA splice inh	Arbovirus inh	others
CCOc1ccc(N=C2NC(=O)S/C2=C\c2ccc(Cl)cc2)cc1	0	-5	-12%	1.0	-10
COC(=O)N1CCc2c(sc(NC(=O)C3COc4ccccc4O3)c2C(N)=O)C1 (configuration not stated)	54	/	/	7.4	/
COc1ccc(CCNC(=O)Cn2cccc2C(=O)c2ccccc2C)cc1OC	-2	-18	2%	-1.1	-2
Cc1ccccc1OCC(=O)NNC(=O)C1CCN(c2ncnc3sc(C)c(C)c23)CC1	-10	/	/	1.4	/
Cc1ccc(C2=NS(=O)(=O)N(C)C(C(=O)NCc3ccc(F)cc3)=C2)cc1	-1	/	/	-6.5	/
C=C(C)c1cccc(C(C)(C)NC(=O)Nc2cc(C)ccc2OC)c1	8	-39	2%	5.6	-3
Cc1nn(C)c(Cl)c1C(=O)NCC(=O)Nc1ccc(C(C)C)cc1	10	/	-1%	-4.4	4
